# Mtb bLac sens = beta-lactam sensitization of Mtb H37Rv, H37Rv; M. tuberculosis H37Rv growth with meropenem, percent inhibition; hits of this screen are not shown here; inhibition, % at 25 µM; hit rate 0.27% among 330,000; AID 434955, 2010;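 active = about 74% or more and at least 40 points above the plate without the antibiotic, then above 30% in a dose series; inconclusive = first-round hits that could not be retested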;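 also: growth measured after seven days incubation then overnight dye step; 0% = bacteria only wells and 100% = bacteria with antibiotic; twin plates without the antibiotic show which effects depend on it; some results filed as inactive read as strong as hits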
# RecA intein inh = Mtb RecA intein splicing inhibitors, primary screen, biochemical, fluorescence, HTS; AID 2221, 2009; inhibition, %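 (about 9 µM by stock and volumes)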; hit rate 0.75% among 290,000; cell-free RecA intein splicing; in the data active = inhibition above about 30%; inconclusive = no clear call, values can overlap the other calls;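 also: 0% = vehicle wells and 100% = reference inhibitor control wells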
# Target sequence (P9WHJ3 whole entry, looked up): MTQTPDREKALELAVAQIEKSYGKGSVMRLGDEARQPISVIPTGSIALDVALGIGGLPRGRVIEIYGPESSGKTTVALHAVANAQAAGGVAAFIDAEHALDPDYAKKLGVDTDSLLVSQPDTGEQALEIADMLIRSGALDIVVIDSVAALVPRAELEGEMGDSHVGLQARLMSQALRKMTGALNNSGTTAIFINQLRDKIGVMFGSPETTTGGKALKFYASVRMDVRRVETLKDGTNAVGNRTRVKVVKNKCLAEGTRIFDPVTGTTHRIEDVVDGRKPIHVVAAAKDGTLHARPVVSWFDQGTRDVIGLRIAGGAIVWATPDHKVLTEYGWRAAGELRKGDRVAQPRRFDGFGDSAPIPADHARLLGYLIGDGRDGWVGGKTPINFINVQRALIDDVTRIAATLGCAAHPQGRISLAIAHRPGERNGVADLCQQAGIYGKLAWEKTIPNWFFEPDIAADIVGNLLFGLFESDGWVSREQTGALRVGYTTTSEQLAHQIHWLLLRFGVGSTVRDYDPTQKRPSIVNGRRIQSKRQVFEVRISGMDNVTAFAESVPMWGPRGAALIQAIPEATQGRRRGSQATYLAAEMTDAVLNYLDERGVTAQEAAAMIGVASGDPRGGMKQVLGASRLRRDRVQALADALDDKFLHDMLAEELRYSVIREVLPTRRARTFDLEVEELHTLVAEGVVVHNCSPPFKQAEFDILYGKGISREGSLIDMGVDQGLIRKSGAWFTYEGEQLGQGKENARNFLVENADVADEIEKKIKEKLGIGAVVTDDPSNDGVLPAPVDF
# YopH PTP inh = YopH tyrosine phosphatase inhibitors, primary screen, biochemical, fluorescence Ex485/Em525; YopH tyrosine phosphatase [Yersinia enterocolitica]; inhibition, %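 (about 10 µM by stock and volumes)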; hit rate 0.16% among 140,000; AID 898, 2007;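 active = inhibition of 50% or more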;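 also: controls were vehicle for no effect and minimum signal wells for full effect; inactives centre near -20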
# Arbovirus inh = antivirals against arbovirus infection, primary screen, cell-based, full library, 10K replicate subset; hit rate 0.37% among 200,000; arbovirus infection cell-based antiviral screen; inhibition, % at 10 µM;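 active = inhibition from about 30%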;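 also: bluetongue infection of BSR cells; cell survival read as ATP light after 72 h; 0% = infected wells without compound and 100% = uninfected wells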
# Mtb growth = M. tuberculosis H37Rv growth inhibitors, H37Rv strain (AID 1626); inhibition, % at 10 µM; hits with a dose series show IC50 in µM; M. tuberculosis H37Rv growth inhibition; higher % means a stronger effect; hit rate 0.95% among 220,000;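 active = confirmed in a dose series; inconclusive = inhibition above 80% but not taken into the dose series; inactive = below 80% or under 30% at every dose of the series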;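 also: bacteria incubated seven days before Alamar blue readout; 0% = bacteria only wells and 100% = bacteria with antibiotic wells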
# Active calls of the source: *; u = inconclusive; x = no result given.
# Values run as follows: Mtb bLac sens | RecA intein inh | YopH PTP inh | Arbovirus inh | Mtb growth
- Nc1nnc(CC2=CCCCC2)s1
    2.7 | -1.4 | -21.7 | 6.7 | -2.4%
- CCCNC(=O)C12CCC(C)(C(=O)O1)C2(C)C (stereo not drawn)
    -11.9 | -1.5 | x | x | -5.5%
- CC1(C)CC2CC(C)(CN2CC(=O)C(C#N)c2ccccc2)C1 (stereo not drawn)
    8.1 | -1.0 | 7.0 | 5.8 | -1.2%
- O=C(COC(=O)C1CCN(S(=O)(=O)c2ccc3c(c2)OCCO3)CC1)NC1CCS(=O)(=O)C1 (stereo not drawn)
    -7.5 | -0.2 | x | x | x
- Cc1nc(N2CCOCC2)c2c(C)c(C(=O)Nc3ccccc3C(F)(F)F)sc2n1
    1.7 | -0.5 | x | -1.8 | -4.9%
- CCN(CC)CCCNC(=O)c1ccc(Cl)c(S(=O)(=O)Nc2ccccc2OC)c1
    -24.5 | 6.5 | -7.1 | -0.3 | -1.4%
- COC(=O)C1C(=O)C=C(Nc2ccc(F)cc2F)CC1c1ccc(OC)cc1 (stereo not drawn)
    -6.5 | 1.2 | -13.7 | -2.0 | 3.6%
- CCCCn1c2nc3ccccc3nc2c2c(=O)n(CCC(C)C)cnc21
    4.3 | -0.6 | -29.1 | -5.6 | 3.0%
- CCOc1ccc(-n2cc(C(=O)N3CCC(C)CC3)c3cc(OC)c(OC)cc3c2=O)cc1
    2.1 | -2.8 | -39.9 | 4.1 | -6.8%
- COc1ccc(-n2c(C)cc(/C=N/Nc3nc(N4CCOCC4)nc(N4CCOCC4)n3)c2C)cc1
    5.4 | -4.2 | 16.8 | 12.7 | 8.7%
- c1ccc(CN2CCN(C3=Nc4cccc5cccc3c45)CC2)cc1
    x | -18.3 | -1.4 | -25.4 | x
- COc1ccc(NC(=O)NC(C)(C(F)(F)F)C(F)(F)F)cc1
    74.6 | 1.1 | -18.4 | 1.9 | 4.5%
- Clc1ccc(-c2ccc(CNCc3ccccn3)o2)cc1
    95.9 | 0.4 | x | x | x
- CCN(CC)c1ccc(/C=C2/SC(=O)N(C(C)C)C2=O)o1
    x | 3.4 | -4.5 | -2.2 | u
- O=C(/C=C/c1ccc(F)cc1)NC(=S)N1CCCCC1c1cccnc1 (stereo not drawn)
    -4.5 | 5.1 | x | x | -2.8%
- O=C(NC(Cc1ccccc1)C(=O)O)/C(=C/c1ccccc1)NC(=O)c1ccc(Br)o1 (stereo not drawn)
    -8.9 | 0.4 | x | x | x
- CCc1cc2c(N3CCN(c4nnc(CC)s4)CC3)ncnc2s1
    -7.7 | 2.0 | -29.0 | 14.4 | -4.0%
- Cc1cccc(-n2nc(C(=O)c3ccco3)cc(-c3nc4ccccc4[nH]3)c2=N)c1
    32.6 | 4.9 | -5.5 | -11.5 | 15.0%
- N#C/C(C(=O)c1ccccc1)=C1/SC=C(N)N1c1ccccc1
    x | x | -31.2 | 1.6 | 0.8%
- COc1ccccc1C(=O)N/N=C(\C)CC(=O)Nc1ccc(Nc2ccccc2)cc1
    38.2 | 1.8 | x | x | x
- CC1=C(Cl)C2=NS(=O)(=O)CCN2C=C1Cl
    2.7 | -1.7 | x | 2.5 | -12.7%
- CCOc1cc(/C=N\NC(N)=O)cc(Br)c1OC(C)C
    9.4 | -9.3 | 0.7 | -1.4 | 3.3%
- Cc1c(NC(=O)C(=O)N/N=C/c2cccs2)c(=O)n(-c2ccccc2)n1C
    -9.3 | -3.4 | x | x | 6.1%
- Cc1ccc(N2CCN(c3ccc(NC(=O)CCC(=O)O)cc3)CC2)cc1
    -0.3 | -2.9 | -12.0 | 0.1 | -1.2%
- COc1ccc(S(=O)(=O)Nc2nc3ccccc3nc2NCc2ccc3c(c2)OCO3)cc1
    7.9 | -5.2 | -32.0 | -7.0 | 0.3%
- Cc1cc2[nH]c3ccccc3c2cn1
    -1.6 | -0.2 | x | x | x
- O=C(/C=C/c1cccc(Cl)c1)NCCc1ccccc1
    46.9 | 1.7 | -6.2 | -3.0 | 10.1%
- CN(C)CCC(=O)c1cccc(Br)c1
    64.8 | 3.6 | x | 1.5 | 3.8%
- CCC(Sc1nc(-c2ccccc2)cc(=O)[nH]1)C(=O)O (stereo not drawn)
    23.3 | -1.0 | -33.6 | 3.1 | -6.8%
- CCC(=O)Nc1nc2ccc(NC(=O)COc3ccccc3)cc2s1
    -0.1 | -4.6 | x | x | x

# Values run as follows: Mtb bLac sens | RecA intein inh | YopH PTP inh | Arbovirus inh | Mtb growth
- CC1(c2ccc(Cl)cc2Cl)NC(=O)N(CC(=O)Nc2cccnc2Cl)C1=O (stereo not drawn)
    -7.7 | 0.5 | x | x | x
- O=C(O)c1cncc(C#Cc2ccccc2)c1
    5.9 | 0.5 | x | x | x
- COc1ccc(C(=O)/C=C(\C)Nc2ccc(NC(C)=O)cc2)cc1
    1.1 | 0.1 | -25.9 | 4.0 | 0.6%
- O=C(O)c1cc([N+](=O)[O-])ccc1N1CCCCC1
    -0.7 | 2.6 | 4.5 | 6.2 | -2.2%
- CC1CCN(C(=O)CCC(=O)Nc2nnc(C3CCCCC3)s2)CC1
    2.2 | -0.8 | x | x | x
- CCOc1ncccc1C(=O)OCC(=O)N1CC(=O)Nc2ccccc21
    u | -0.2 | -25.7 | 3.0 | -11.3%
- COc1ccccc1NC(=S)N1CCN(c2nc(-c3ccccc3)cs2)CC1
    5.5 | 5.8 | x | -2.0 | -8.3%
- CC1(C)CC(=O)C(C=N)=C(O)C1
    8.5 | 0.1 | -35.6 | -1.1 | 1.9%
- COc1ccc(NC(=O)CSc2n[nH]c(-c3ccccn3)n2)cc1
    16.6 | 0.9 | x | x | x
- Cc1ccc(C(=O)CCC(=O)N(C)CC(=O)Nc2ccccc2Br)cc1
    5.0 | 0.5 | x | x | x
- N#Cc1c(Nc2ccccc2)c(C=O)c[nH]c1=O
    38.0 | 1.3 | x | x | x
- CCCOCC(O)CCc1n[nH]c(=S)n1-c1ccccc1 (stereo not drawn)
    -9.6 | 1.9 | x | 2.7 | -14.2%
- COc1ccc(C2NC(c3ccc(OC)cc3)C(C)C(=O)C2C)cc1 (stereo not drawn)
    7.5 | 4.9 | x | x | x
- O=C(Nc1ccccc1)N1CCN(c2ccccn2)CC1
    -2.4 | -0.4 | -17.0 | -3.2 | -1.5%
- C=C(C)COc1ccc(-c2nc(N)ncc2-c2ccc(OC)cc2)c(O)c1
    x | 4.8 | -25.7 | -46.4 | 20.7%
- O=[N+]([O-])c1ccccc1/C=C/CN1CCSCC1
    0.6 | -0.6 | x | x | x
- COC(=O)/C(C#N)=C/N(C)C
    -1.2 | -0.1 | x | x | -7.0%
- O=C(/C=C/c1ccc(Cl)c(Cl)c1)NCc1ccco1
    -1.3 | 0.1 | -9.6 | -3.1 | 6.0%
- O=C(COC(=O)c1c(Cl)ccc(Cl)c1Cl)NC1CCS(=O)(=O)C1 (stereo not drawn)
    -2.2 | -2.8 | x | 3.0 | 7.9%
- COc1ccc(S(=O)(=O)N2CCC(C(=O)N[C@H](C(=O)N3CCCCCC3)C(C)C)CC2)cc1
    -4.8 | -4.9 | x | x | x
- Cc1cccc(C(=O)NC2CCN(C(=O)NCc3ccccc3)CC2)c1
    -0.7 | 2.5 | x | x | x
- COc1cc(-c2c(NC(=O)c3ccco3)oc3ccccc3c2=O)cc(OC)c1OC
    -6.6 | 5.3 | x | x | x
- COC(=O)C1=NN(c2ccc(C)cc2)C2C(=O)N(c3ccccc3OC)C(=O)C12 (stereo not drawn)
    19.4 | -11.4 | x | x | -11.9%
- CCC1Sc2ccc(S(=O)(=O)Nc3ccc(OC)cc3)cc2NC1=O (stereo not drawn)
    -1.9 | -7.8 | x | x | x
- O=C(NN1CC(C(=O)OCc2ccccc2F)CC1=O)c1ccccc1 (stereo not drawn)
    -8.1 | 0.2 | x | x | x
- COc1ccc(S(=O)(=O)N2CCCC(C(=O)NCc3ccco3)C2)cc1OC (stereo not drawn)
    0.4 | -1.0 | x | x | x
- O=C(CN1C(=O)/C(=C/c2ccccc2F)Sc2ccccc21)NCC1CCCO1 (stereo not drawn)
    16.5 | -2.7 | x | x | x
- CC(=O)Nc1ccc(-n2nnnc2SCC(=O)Nc2cccc(NC(=O)c3ccco3)c2)cc1
    1.8 | 1.7 | x | x | 7.1%
- CC(=O)NC(=S)Nc1sc2c(c1C#N)CCCCC2
    x | -6.4 | -27.4 | 10.4 | 62.1%
- CCOC(=O)C1(Cc2ccccc2C)CCCN(S(=O)(=O)CC)C1 (stereo not drawn)
    -3.3 | 2.7 | x | x | x

# Values run as follows: Mtb bLac sens | RecA intein inh | YopH PTP inh | Arbovirus inh | Mtb growth
- OCCNc1nc(Nc2ccc(Br)cc2)nc2ccccc12
    49.6 | 12.7 | x | -26.6 | 5.8%
- C=CCOc1ccn(C)c(=O)n1
    0.0 | 0.8 | x | x | 2.3%
- CN(c1ccc(C(=O)Nc2ccccc2Sc2ccccc2)cc1)S(C)(=O)=O
    x | 7.4 | -16.7 | 13.6 | 2.9%
- CS(=O)(=O)c1nsc2nc(=O)c(/C=C3\C=Nc4ccccc43)c(N)n12
    -2.1 | -12.7 | x | 46.4* | 1.5%
- CC1(C)C=C(c2ccc(O)cc2)CC(C)(C)N1
    -10.1 | -1.0 | -35.0 | -12.6 | -1.2%
- CC(C)Cn1cc(Cl)c(=O)n(CC(C)C)c1=O
    5.1 | 0.5 | x | 3.7 | 1.6%
- COC(=O)c1cccc(C(=O)N2CCC(CO)(CCc3ccccc3)CC2)c1
    -6.7 | 1.2 | x | x | x
- O=C(Nc1cccc2ccccc12)NC1Cc2ccccc2C1
    16.6 | 1.7 | x | x | 3.5%
- Cn1c(Cn2nnc(-c3ccccc3)n2)nnc1SCc1ccccc1Cl
    -3.1 | -0.6 | -8.7 | 6.8 | -5.5%
- S=C(NCCCN1CCOCC1)Nc1ccc(Nc2ccccc2)cc1
    -1.4 | -2.3 | x | -7.2 | 8.2%
- Cn1c(SCc2ccc3c(c2)OCO3)nnc1-c1ccccc1
    -6.4 | 5.5 | -20.0 | 0.7 | -3.5%
- O=C(CNC(=O)c1ccccc1F)NCc1cccnc1
    -14.7 | -2.5 | x | x | x
- Cc1ccc2c(c1)C(c1ccccc1)N(C(=O)c1ccccc1)CC(=O)N2 (stereo not drawn)
    -9.3 | 1.7 | x | x | x
- CC(=N\NC(=O)c1cc(Br)ccc1O)/C(=N/O)C(=O)Nc1ccccc1
    2.1 | 3.1 | x | x | x
- O=Cc1cccc(Oc2ccc([N+](=O)[O-])cc2[N+](=O)[O-])c1
    5.1 | 11.4 | x | -1.9 | 9.6%
- CN(C)c1ccc(NC(=O)CSc2nnc(-c3cnccn3)n2C)cc1
    -0.6 | -9.3 | x | x | x
- COc1ccc(C(=O)NCc2nnc(SCC(=O)N3CCOCC3)o2)cc1
    -4.8 | -1.8 | x | 0.8 | -0.8%
- CC(=O)Oc1ccc(-c2cccc(C(=O)N3CCCCC3)c2)cc1
    10.3 | 5.5 | x | x | x
- O=C(CCc1ccccn1)NC1CCCc2c1cnn2-c1ccc(F)cc1F (stereo not drawn)
    -1.1 | 1.2 | x | 1.9 | -4.7%
- Nc1nc(CSC(=S)N2CCN(c3ccccc3)CC2)nc(Nc2ccc(F)cc2)n1
    1.6 | 1.4 | -22.9 | 4.5 | 6.8%

# In the list so far, 9 have fluorine:
# Values run as follows: Mtb bLac sens | RecA intein inh | YopH PTP inh | Arbovirus inh | Mtb growth
- Cc1nc(N2CCOCC2)c2c(C)c(C(=O)Nc3ccccc3C(F)(F)F)sc2n1
    1.7 | -0.5 | x | -1.8 | -4.9%
- COC(=O)C1C(=O)C=C(Nc2ccc(F)cc2F)CC1c1ccc(OC)cc1 (stereo not drawn)
    -6.5 | 1.2 | -13.7 | -2.0 | 3.6%
- COc1ccc(NC(=O)NC(C)(C(F)(F)F)C(F)(F)F)cc1
    74.6 | 1.1 | -18.4 | 1.9 | 4.5%
- O=C(/C=C/c1ccc(F)cc1)NC(=S)N1CCCCC1c1cccnc1 (stereo not drawn)
    -4.5 | 5.1 | x | x | -2.8%
- O=C(NN1CC(C(=O)OCc2ccccc2F)CC1=O)c1ccccc1 (stereo not drawn)
    -8.1 | 0.2 | x | x | x
- O=C(CN1C(=O)/C(=C/c2ccccc2F)Sc2ccccc21)NCC1CCCO1 (stereo not drawn)
    16.5 | -2.7 | x | x | x
- O=C(CNC(=O)c1ccccc1F)NCc1cccnc1
    -14.7 | -2.5 | x | x | x
- O=C(CCc1ccccn1)NC1CCCc2c1cnn2-c1ccc(F)cc1F (stereo not drawn)
    -1.1 | 1.2 | x | 1.9 | -4.7%
- Nc1nc(CSC(=S)N2CCN(c3ccccc3)CC2)nc(Nc2ccc(F)cc2)n1
    1.6 | 1.4 | -22.9 | 4.5 | 6.8%

# This is a subset. The share of hits here may be higher or lower than overall.
